Screening results from PubChem BioAssay.
BJeLR lethal: kills HRASV12-expressing BJeLR cells; BJeLR (HRASV12) viability, CellTiter-Glo ATP luminescence, 48 h; reference of the scale not given here; actives 0.17% (n = 300,000); AID 1554; inhibition, % (test concentration not listed);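 active means replicate mean above 50%; inconclusive means above 50% but judged a plate artefact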;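 further: 50 nL library stock added to about 25 µL; numbers are from one replicate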
Autofluor counter: compound fluorescence in toxin protease inhibitor counterscreen; compound autofluorescence counterscreen, microsphere flow cytometry; stronger effect = higher value; fluorescence intensity (test concentration not listed); actives 3.1% (n = 360,000); AID 624483;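 active means at least 3 SD above the mean of all compounds, about 16000 in these data; inconclusive means too few beads counted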;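 further: 100 nL of 1 mM stock went into each well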
Mtb hypoxia inh: reduces hypoxia-regulated biosensor signal in M. tuberculosis | M. tuberculosis hypoxia-regulated fluorescent reporter, fluorescence | fluorescence inhibition, % (no concentration beside the values) | actives 0.1% (n = 300,000);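 active means 35 to 45% if threefold the growth effect, above 45% if 1.5-fold the growth effect; inactive means the rest, general growth blockers included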;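 further: wells of about 50 µL received 100 nL stock; 0% = vehicle wells and 100% = reference inhibitor wells; whole bacteria with a GFP reporter of the hypoxia response; strong numbers were not always called active; many hits fall short of the cut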
PrP UTR inh: suppresses PrP 5' UTR mRNA reporter expression; cell-based PrP 5' UTR mRNA reporter, plate reader; inhibition, % (no concentration beside the values); actives 0.35% (n = 340,000); AID 488862;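 active means every replicate at 50% or more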;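 further: 0 = median of the neutral control wells; tested in H4 reporter cells; numbers are from one replicate; inactives centre near -14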
RN4220 kill: S. aureus RN4220 growth inhibition; OD600, 16 h; inhibition, % (no concentration beside the values); actives 0.33% (n = 330,000); AID 1259311;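 active means z-score of -3 or lower and OD600 up to 0.18 on both plates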;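 further: plate controls were untreated cells for no effect and reference antibiotic for full effect; stock transfer was 100 nL into about 80 µL; one replicate is shown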
Sa ugtP lethal: compounds lethal to S. aureus RN4220 ugtP deletion mutant | OD600 growth, 16 h; some inactives read as strong as hits | growth inhibition, % (concentration not given with the values) | actives 0.54% (n = 330,000) | AID 1259309;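 active means z-score under -3 and OD600 up to 0.15 on both plates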;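 further: plate controls were untreated wells for no effect and antibiotic for full effect; wells of about 80 µL received 100 nL stock; the first replicate is given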
Mtb hypoxia inh growth: recorded beside Mtb hypoxia inh, whose call it bears; growth inhibition, %; measured here: M. tuberculosis growth (absorbance);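 0% = vehicle and 100% = reference antibiotic; read after six days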
Starred values were filed as active, the others as inactive; ? = inconclusive; / = no result given; & = joins results of further samples.

Every second line gives: BJeLR lethal, Autofluor counter, Mtb hypoxia inh, Mtb hypoxia inh growth, PrP UTR inh, RN4220 kill, Sa ugtP lethal
1	Cc1ccc(C)c(SCC(=O)Nc2ccc(S(=O)(=O)Nc3ncccn3)cc2)c1
 : -14, 4379, 14, 2, 0, 4.1, -2
2	Cc1ccc(-c2nc(-c3ccccn3)no2)cc1
 : 49, 4984, /, /, 86*, 2.5, 1
3	Cc1c(Cl)cccc1NC(=S)NCC(O)c1ccccc1 (centres undefined)
 : -11, 2918, /, /, -4, -0.9, 1
4	CCOC(=O)N1CCC(NC(=O)C2CCN(S(=O)(=O)N3CCC(C)CC3)CC2)CC1
 : /, 10041, 2, 6, -33, 4.6, -5
5	COc1ccc(CNC(=O)C2CCN(C(=O)c3sccc3-n3cccc3)CC2)cc1
 : 5, 6266, 0, 3, -5, -3.8, 3
6	O=C(CN1C(=O)NC2(CCCCCC2)C1=O)NCc1ccc(F)cc1
 : /, 3959, 10, 9, -9, 1.8, -3
7	O=C(COC(=O)c1cccc(Cl)c1)NCCN1C(=O)CSC1=O
 : 16, 2525, 1, 1, 2, 3.8, 6
8	CC(C)(C)c1ccc(C(=O)Nc2ccccc2NC(=O)c2ccco2)cc1
 : 0, 3223, 14, 7, -13, 2.1, -25
9	Cc1ccc(OCC(=O)N2CCN(S(C)(=O)=O)CC2)cc1
 : 10, 5233, 5, 10, -28, 2.5, 8
10	O=C(Cn1nnc2ccccc21)NC1CCCCC1
 : -3, 4310, -15, -3, -3, 1.0, 2
11	COc1ccc(CNc2ccc3c(c2)ncn3C)cc1OC
 : -6, 3800, 1, 8, -36, 3.4, -1
12	O=S(=O)(Nc1cccc(-n2cnnn2)c1)c1ccc(Cl)nc1
 : -12, 2488, -3, -7, -9, 4.0, 11
13	Cc1ccc2nsnc2c1NC(=O)c1ccc([N+](=O)[O-])o1
 : -1, 3053, 24, 25, -30, 5.6, 6
14	CC(=O)OC1N=C(c2ccccc2)c2cc(C)ccc2NC1=O (centres undefined)
 : 2, 4859, /, /, -20, 0.4, -10
15	CC(C(=O)N1CCCCC1)N(C)CC(=O)Nc1cccc(F)c1 (centres undefined)
 : /, /, 6, 8, /, 2.1, 4
16	CCCc1cc(C(=O)Nc2cccc([N+](=O)[O-])c2)cs1
 : -4, 5308, -8, -10, -39, 0.1, -8
17	Cc1cc2c(c(CO)c1CCO)C(=O)C(C)C2O (centres undefined)
 : /, /, 12, 15, /, 2.9, 4
18	O=C(N/N=C/c1ccncc1)C1CC1C(=O)N/N=C/c1ccncc1 (centres undefined)
 : -8, 2124, /, /, -6, /, /
19	CC(C)C(NS(=O)(=O)c1ccc2c(c1)oc(=O)n2C)C(=O)N1CCN(c2ccccc2F)CC1 (centres undefined)
 : /, 5677, /, /, 3, 1.5, 4
20	Cc1nc2ccc(Br)cn2c1C(=O)NN=Cc1ccccc1Cl
 : /, /, 3, 14, /, 7.8, 3
21	OCCC1CN(Cc2ccc3nonc3c2)CCN1Cc1ccsc1 (centres undefined)
 : 7, 3174, -5, 3, -15, 8.7, 1
22	Cc1ccc(C(=O)n2c(-c3ccccc3)cnc2SCC(=O)Nc2ccc(C)cc2C)cc1
 : -11, 2560, -2, 5, 4, 1.6, -21
23	O=C1NN(c2ccc(Cl)c(Cl)c2)C(=O)/C1=C/c1ccc(-c2ccccc2C(=O)O)o1
 : 4, 2986, 10, 1, -4, 2.3, -9
24	Oc1ccc(COCc2ccccc2)c2cccnc12
 : 16, 2116, /, /, -20&-15, 8.6, -1
25	CC(C)(O)C#Cc1ccc(C(=O)NCCC(=O)O)s1
 : 6, 4626, 3, 5, -8, 3.1, 1
26	CCOC(=O)CSc1nc2cc(S(=O)(=O)Nc3ccccc3OC)ccc2o1
 : -3, 10107, 12, 10, /, 4.4, 1
27	CC(C)(C)c1cc(N2CCOCC2)n2ncc(-c3ccc(Cl)cc3)c2n1
 : -8, 3800, -3, 3, -9, -14, 33
28	CCOC(=O)CC1C(=O)NCCN1S(=O)(=O)c1ccc(Cl)c(Cl)c1 (centres undefined)
 : 0, 3195, 9, 5, -18, -0.6, 0
29	Cc1ccc(OCC(=O)NC2=NCCS2)cc1
 : 0, 2953, -3, 5, -14, 3.4, -3
30	CC(NC(=O)CCc1nnc(-c2ccccc2)o1)c1ccccc1 (centres undefined)
 : -4, 6527, 5, 15, -27, 0.6, 5
31	CCC(C)(C)n1nnnc1C(c1ccccn1)N1CCCCC1 (centres undefined)
 : -3, 3476, -3, 16, -12, 11, 1
32	COc1ccc2c(-c3ccccc3)cc(=S)[nH]c2c1
 : -8, 3555, 16, 8, -20, -0.5, 19
33	COc1cc(C)nc(N2CCC(C(=O)NCC3CCCO3)CC2)n1 (centres undefined)
 : 3, 5489, -5, 3, -12, 1.9, 3
34	CCC(C)[C@H](NC(=O)c1cn(CC)c2cc3c(cc2c1=O)OCO3)C(=O)NCCCn1ccnc1 (some centres undefined)
 : 11, 5990, -10, -1, -2, 0.2, -3
35	O=C1CC(N(O)c2ccccc2)C(=O)N1c1ccc(Cl)c(Cl)c1 (centres undefined)
 : 2, 3851, -6, -1, -19, -2.7, -3
36	Cc1ccccc1NC(=O)CSc1nnc2ccc(-c3cccnc3)nn12
 : -13, ?, 5, -7, 8, 0.8, 3
37	CC(=O)c1ccc(O)c(CSC2=NCCS2)c1
 : 3, 3154, 1, -1, -5, 5.4, 10
38	NC(=O)c1ccccc1[N+](=O)[O-]
 : /, 5110, -3, 2, -14, 6.0, 16
39	O=C(N/N=C/c1ccc[nH]1)c1cccc([N+](=O)[O-])c1
 : 0, 2030, /, /, -18, /, /
40	C#C[C@]1(O)CCC2C3CCC4=C/C(=N/OCC(=O)NC(C)C(=O)NC(CCSC)C(=O)O)CC[C@]4(C)C3CC[C@@]21C (some centres undefined)
 : 9, 3581, /, /, -54, /, /

One compound at a time (already shown).
CC(=O)c1ccc(O)c(CSC2=NCCS2)c1 in the list: BJeLR lethal: 3; Autofluor counter: 3154; Mtb hypoxia inh: 1; Mtb hypoxia inh growth: -1; PrP UTR inh: -5; RN4220 kill: 5.4; Sa ugtP lethal: 10
CC(C)(O)C#Cc1ccc(C(=O)NCCC(=O)O)s1 in the list: BJeLR lethal: 6; Autofluor counter: 4626; Mtb hypoxia inh: 3; Mtb hypoxia inh growth: 5; PrP UTR inh: -8; RN4220 kill: 3.1; Sa ugtP lethal: 1
O=C(Cn1nnc2ccccc21)NC1CCCCC1 in the list: BJeLR lethal: -3; Autofluor counter: 4310; Mtb hypoxia inh: -15; Mtb hypoxia inh growth: -3; PrP UTR inh: -3; RN4220 kill: 1.0; Sa ugtP lethal: 2

Further compounds.
Every second line gives: BJeLR lethal, Autofluor counter, Mtb hypoxia inh, Mtb hypoxia inh growth, PrP UTR inh, RN4220 kill, Sa ugtP lethal
41	CC(C)C(OC(=O)c1cccs1)C(=O)NCc1ccc(F)cc1 (centres undefined)
 : -6, 3174, /, /, 0, /, /
42	O=C(Cn1ncc2c([nH]c3ccccc32)c1=O)NCCc1ccccc1
 : 5, 4184, 2, 0, -3, -1.7, -6
43	COC(=O)c1[nH]c(=O)c2ccccc2c1OCc1ccccc1
 : 6, 7897, 12, 13, 47, 4.7, 0
44	COc1ccccc1NC(=O)c1cc(N2C(=O)C3C4CCC(C4)C3C2=O)ccc1Cl (centres undefined)
 : -10, 5376, 19, 3, -2, -0.7, 1
45	CC(C)NC(=O)C1=NN(c2ccccc2)C(=O)CC1
 : 1, 3482, 10, 5, -12, 5.4, 5
46	COc1ccc(OC)c(NC(=O)CN(C)S(=O)(=O)c2ccc3nc(C)sc3c2)c1
 : -1, 2251, 10, 8, -18, 5.7, -2
47	Cc1cccc(C)c1Nc1nnc(SC(C)C(=O)Nc2c(C)n(C)n(-c3ccccc3)c2=O)s1 (centres undefined)
 : 5, 2497, -6, 2, -24, 6.3, 1
48	O=C(COc1cc(Cl)c(Cl)cc1Cl)NCCN1CCOCC1
 : -2, 4071, 2, 10, 55*, 0.4, -4
49	O=[N+]([O-])c1cccc(N(CC2CO2)S(=O)(=O)c2ccccc2)c1 (centres undefined)
 : -3, 4956, /, /, -18, /, /
50	CCOC(=O)C1CCCCN1Cc1ccccc1C(F)(F)F (centres undefined)
 : 10, 17635*, 12, 7, -2, 3.5, 10
51	Cc1cc(C(=O)CN2CCN(CC(=O)Nc3ccc(F)cc3)CC2)c(C)n1C1CC1
 : /, 4268, 8, 4, -9, 3.5, 6
52	Cn1nc(NC(=O)CC(C)(C)CC(=O)O)c2ccccc21
 : -10, 6311, 16, 6, -9, 0.6, 3
53	CCN=C1SC(=Cc2ccc(Sc3ccc(Cl)cc3)o2)C(=O)N1CC
 : /, /, 4, 9, /, 0.0, -9
54	O=C(CSc1n[nH]c(-c2cccs2)n1)N1CCN(S(=O)(=O)c2ccccc2)CC1
 : -4, 6626, 13, 1, -13, 0.0, 8
55	Cc1ccc(C(=O)N2CCC3(CC2)NCCc2[nH]cnc23)cc1
 : -3, 5780, 0, 0, 1, -0.6, 1
56	O=C1CCN(CCCc2ccccc2)CCN1C(CO)Cc1ccccc1 (centres undefined)
 : /, /, 6, -1, /, 4.4, 0
57	COc1ccc(Br)cc1/C=C(\C(=O)O)c1ccc(S(=O)(=O)N2CCCC2)s1
 : /, 4036, 4, 5, -15, 7.8, -27
58	COc1ccc(OCc2cc(C(=O)N(C)Cc3cc(C)no3)no2)c(Cl)c1
 : 6, /, 4, 7, -68, 3.0, 0
59	CCN1C(=O)/C(=C2/C=CC=CN2C)SC1=S
 : 15, 23187*, -6, 2, -7, -0.6, -8
60	COc1cccc(C(=O)OCC(=O)Nc2ccc3c(c2)OCCO3)c1
 : /, 3518, 5, 14, -42, 5.0, 4
61	C/C(=N\NC(=O)c1nn(C)c(C)c1Br)c1ccc(NC(=O)c2ccoc2C)cc1
 : 19, 2229, /, /, -42, /, /
62	O=S(=O)(Oc1ccccc1N1CCCCC1)c1ccccc1
 : 15, 5225, 11, 16, -9, 8.9, 1
63	CC(C)CCNC(=O)c1ccc(CSCc2cccc(F)c2)o1
 : -6, 17562*, 6, 1, -16, 0.3, 3
64	Cc1ccc(S(=O)(=O)N2CCN(S(=O)(=O)N(C)C)CC2)c(C)c1
 : -4, 9493, 18, 7, -25, 0.9, 6
65	Nn1c(Cc2cccc3ccccc23)nnc1SCc1ccccc1
 : -11, 2056, 17, 9, -24, 6.9, 20
66	CCOCCCNC(=O)C1CCN(S(=O)(=O)N2CC(C)CC(C)C2)CC1 (centres undefined)
 : 0, 8760, -1, -3, -15, -0.7, -3
67	C/C=C(\C)C(=O)NCCN1C2=NC[C@@H](Cc3ccccc3)N2C[C@@H]1Cc1ccc(OC)cc1
 : -5, 4170, /, /, -6, /, /
68	CC(=O)N1CCc2cc(S(=O)(=O)CCC(=O)NCCc3ccc(Cl)cc3)ccc21
 : -1, 5994, -4, -6, -38, 0.2, 4
69	Cc1ccc(S(=O)(=O)N2CCC[C@H]2C(=O)OCC(=O)Nc2ccc3c(c2)OCO3)cc1
 : /, /, -4, -5, -10, 4.3, 2
70	CCCCn1c(N)c(N(CC)C(=O)c2ccc(Cl)c(Cl)c2)c(=O)[nH]c1=O
 : -14, 3642, -5, 6, -18, 1.8, 3
71	CC1(C)CC(C(=O)Nc2nccs2)CCO1 (centres undefined)
 : 0, 6275, /, /, -10, 2.0, -6
72	COc1ccc(-c2cc(C(=O)NN=Cc3cccnc3)c3ccccc3n2)c(OC)c1
 : /, /, 9, 6, /, 1.3, 7
73	CC(=NNC(=O)C12CCC(C)(C(=O)O1)C2(C)C)c1ccccc1O (centres undefined)
 : /, /, 11, -1, /, 0.1, -2
74	O=C(CNc1ccccc1N1CCCC1=O)Nc1cc(Cl)ccc1-n1cncn1
 : /, ?, 3, 5, 8, 1.0, 8
